VACV mCherry inh – qHTS for Stage-Specific Inhibitors of Vaccinia Orthopoxvirus: mCherry Reporter Primary qHTS. Vaccinia virus mCherry reporter infection, fluorescence; about a quarter of the inactives have no number. AID 720579, 2013. 0.63% of 310,000 active. Potency, µM (top dose mostly 36.5 µM), inactives show at the top dose activity change, negative = inhibition, usual class: inhibitors; active = well fitted inhibition curve with a large enough effect; inconclusive = small, poorly fitted or top-dose-only effect; inactive = no such curve, though single readings can be large or run the other way; tested in A549 cells; also: nearly all actives have a fitted effect of over 35% in size; inactives centre near -10
Vaccinia Venus – qHTS for Stage-Specific Inhibitors of Vaccinia Orthopoxvirus: Venus Reporter Primary qHTS; Vaccinia virus Venus reporter expression, fluorescence; Potency, µM (titrated, usually from 36.5 µM), for the others: at the top dose activity change, negative = inhibition, most hits filed as inhibitors; 0.46% of 330,000 active; AID 720580, 2013; active means well fitted inhibition curve with a large enough effect; inconclusive means small, poorly fitted or top-dose-only effect; inactive means no such curve, though single readings can be large or run the other way; tested in A549 cells; also: nearly all actives have a fitted effect of over 30% in size; inactives centre near -10
* marks the source's active call; other numbers are inactive results; i = inactive; ? = inconclusive; · = no result given; [ ] = another dose, or the depositor's remark. % is scaled to controls: 0 for no effect and ±100 for the full control effect; potency is read from the fitted curve at half-maximal effect.

entry | smiles | VACV mCherry inh | Vaccinia Venus
1 | Cc1cccc(C)c1NC(=O)C(NC(=O)CN1C(=O)c2ccccc2C1=O)c1ccccc1 (stereo unspecified) | -7% | -14%
2 | CCOc1ccc2[nH]c(O)c(NC(C)=O)c2c1 | i | -6%
3 | Cc1c(C(=O)Nc2c(F)cccc2F)sc2ncn(Cc3ccccc3F)c(=O)c12 | -5% | -14%
4 | CN(C)CCCCCCCCCCC(=O)/C=N/O | -22% | -13%
5 | CC1=C(C(=O)OC2CCCC2)C(c2c(F)cccc2Cl)CC(=O)N1 (stereo unspecified) | -23% | -26%
6 | O=C(Nc1ccccc1)c1ccc(S(=O)(=O)N2CCC(C(=O)O)CC2)cc1 | -13% | 11%
7 | O=C(Nc1ccc(Br)c(C(F)(F)F)c1)c1ccccc1 | ? | -28%
8 | O=C1C=CC2C(c3ccc4c(c3)OCO4)CC1N2Cc1ccccc1 (stereo unspecified) | -10% | -3%
9 | O=C(Cc1c(O)c2ccccc2[nH]c1=O)NCc1ccc(F)cc1 | · | -14%
10 | CC(=O)C1=CN(Cc2ccccc2)CCC1=O | -9% | -4%
11 | COc1ccc(CNc2ncc(-c3ccc(F)cc3)n2C)c2ccccc12 | ? | -10%
12 | COc1ccc(Cl)cc1NC(=O)C1CC(c2ccccc2Cl)=NO1 (stereo unspecified) | -5% | ?
13 | COc1cccc(C(c2sc3nc(C)nn3c2O)N2CCC3(CC2)OCCO3)c1 (stereo unspecified) | i | -8%
14 | COc1ccc(NC2=NCCCS2)cc1OC | -20% | 13%
15 | Cc1cc(C)nc(N(C#N)Cc2cccc([N+](=O)[O-])c2)n1 | -5% | -14%
16 | CC1(C(=O)Nc2ccc(F)cc2F)CCN1C(=O)Cc1ccccc1 (stereo unspecified) | -7% | -1%
17 | Cc1nc2ccccc2nc(C)c1=NOCc1cccc(F)c1 | i | ?
18 | O=C(COc1ccccc1)N1c2ccccc2Sc2ccccc21 | i | 11%
19 | O=C(NC12CC3CC(CC(C3)C1)C2)c1ccco1 | i | -10%
20 | O=C(NC1(C(F)(F)F)C(=O)Nc2c1c(=O)[nH]c(=O)n2CCc1ccccc1)c1ccc(Cl)cc1 (stereo unspecified) | 7% | 12%

Part of the list above in order of formula weight, rising:
entry | smiles | VACV mCherry inh | Vaccinia Venus
19 | O=C(NC12CC3CC(CC(C3)C1)C2)c1ccco1 | i | -10%
15 | Cc1cc(C)nc(N(C#N)Cc2cccc([N+](=O)[O-])c2)n1 | -5% | -14%
17 | Cc1nc2ccccc2nc(C)c1=NOCc1cccc(F)c1 | i | ?
18 | O=C(COc1ccccc1)N1c2ccccc2Sc2ccccc21 | i | 11%
12 | COc1ccc(Cl)cc1NC(=O)C1CC(c2ccccc2Cl)=NO1 (stereo unspecified) | -5% | ?

Going on with the list:
entry | smiles | VACV mCherry inh | Vaccinia Venus
21 | CC(C)(C)C(=O)Nc1nnc(SCC(=O)NC2CCCCC2)s1 | i | -1%
22 | Cc1ccccc1-c1cc(-c2ccccc2O)n[nH]1 | -8% | -25%
23 | CCc1ccc(-n2c(N3CCN(c4cccc(C)c4C)CC3)nc3ccccc3c2=O)cc1 | -7% | -11%
24 | Cc1sc(NC(=O)C2CSC3(C)CCC(=O)N23)nc1-c1ccccc1 (stereo unspecified) | -21% | ?
25 | Cc1c(F)cccc1NC(=O)CCC(=O)O | -18% | -6%
26 | COC(=O)[C@]1(C)N[C@H](c2ccc(-c3ccc(OC)cc3)cc2)[C@@H]2C(=O)N(C)C(=O)[C@@H]21 | i | -19%
27 | S=C(Nc1ccc(Cl)cc1)c1nc2ccccc2[nH]1 | ? | -29%
28 | O=C(NCc1ccccc1)/C(=C/c1ccco1)NC(=O)c1ccco1 | -3% | -10%
29 | O=C1CC(c2ccc(Cl)cc2)n2nc(N3C(=O)c4ccccc4C3=O)nc2N1 (stereo unspecified) | · | -13%
30 | Cc1[nH]c(C)c(S(=O)(=O)N2CCc3ccccc32)c1C(=O)N1CCCCC1 | i | -9%
31 | COc1cccc(C(=O)NCc2n[nH]c(=S)n2-c2cccc(C)c2)c1 | -15% | -17%
32 | Cc1ccc(N2CCN(C(=O)NCc3noc4ccccc34)CC2C)cc1 (stereo unspecified) | -11% | -13%
33 | O=C(CN1C(=O)C(=O)N(Cc2ccccc2)C1=O)Nc1ccc(F)c(Cl)c1 | -15% | -11%
34 | CCN(CC(=O)Nc1ccc(NC(C)=O)cc1)CC(=O)Nc1ccc(F)c(Cl)c1 | -17% | -17%
35 | C=CCNC(=O)c1c(CSc2ccc(F)cc2)noc1C(=O)NCCC | -7% | -13%
36 | CCc1ccc(NC(=O)CSC2=Nc3ccccc3C3=NC(CCC(=O)NCc4cccs4)C(=O)N23)cc1 (stereo unspecified) | -15% | -8%
37 | CC(=O)c1c(C)[nH]c(C(=O)OCC(=O)N2CCN(c3ccccc3)CC2)c1C | ? | -3%
38 | COc1ccc2c(CC(=O)N3CCc4ccccc43)coc2c1 | · | -10%
39 | CCCCn1c(=S)[nH]c2ccccc2c1=O | -7% | -9%
40 | O=C(NCc1ccco1)c1ccc(Cn2c(SCc3ccccc3)nc3cccnc32)cc1 | -8% | -10%

Five of these compounds in another layout.
(38) COc1ccc2c(CC(=O)N3CCc4ccccc43)coc2c1
(35) C=CCNC(=O)c1c(CSc2ccc(F)cc2)noc1C(=O)NCCC
(39) CCCCn1c(=S)[nH]c2ccccc2c1=O
(31) COc1cccc(C(=O)NCc2n[nH]c(=S)n2-c2cccc(C)c2)c1
(33) O=C(CN1C(=O)C(=O)N(Cc2ccccc2)C1=O)Nc1ccc(F)c(Cl)c1
assay / compound	38	35	39	31	33
VACV mCherry inh	·	-7%	-7%	-15%	-15%
Vaccinia Venus	-10%	-13%	-9%	-17%	-11%

Next compounds follow:
entry | smiles | VACV mCherry inh | Vaccinia Venus
41 | COc1ccc(S(=O)(=O)Nc2cccc(-c3ccc(N4CCCCCC4)nn3)c2)cc1F | -10% | -13%
42 | COCC(=O)Nc1ccc([N+](=O)[O-])cc1OC | i | -17%
43 | O=C(NCCO)c1cc([N+](=O)[O-])cc2c1C=Cc1ccccc1O2 | 1% | -9%
44 | CCCCNc1ccc2c(c1)C1CC2CCN1C(=O)OCc1ccccc1 (stereo unspecified) | -10% | -20%
45 | Cc1ccc(OC(=O)N(C)C[C@@H]2OCc3cnnn3CCCC(=O)N([C@H](C)CO)C[C@@H]2C)cc1 | i | -9%
46 | CCS(=O)(=O)c1ccc2c(c1)N(S(=O)(=O)c1ccc(C)cc1)CC(C(=O)O)O2 (stereo unspecified) | -1% | -4%
47 | O=C(CCCCl)NC(=S)Nc1ccc(N2CCOCC2)cc1 | ? | -25%
48 | Cc1c(C(=O)N2CCc3ccccc3C2)oc2ccc(S(=O)(=O)N3CC(C)CC(C)C3)cc12 (stereo unspecified) | ? | -22%
49 | CCOCCCN(C)C1CCN(C(=O)c2oc3ccccc3c2NC(=O)COc2cccc(C)c2)CC1 | -12% | -18%
50 | COc1cccc(NC(=O)Nc2nnc([C@@H]3C[C@H](O)[C@@H](CO)O3)s2)c1 | -6% | -4%
51 | COC(=O)c1c(NC(=O)c2ccc(S(=O)(=O)N3CCC(C)CC3)cc2)sc2c1CCN(C)C2 | ? | ?
52 | CCNc1oc(-c2ccc(COc3ccc(Cl)cc3)o2)nc1C#N | -11% | -15%
53 | O=C(c1ccccc1S(=O)(=O)NCc1ccccc1)N1CCCC1 | i | -6%
54 | COc1ccc(C(=O)NC(C)Cc2c[nH]c3ccccc23)cc1 (stereo unspecified) | ? | -20%
55 | CC(=O)c1ccc(OCC(O)CN2C(C)CCCC2C)cc1 (stereo unspecified) | -12% | 0%
56 | O=C(CC1N=C2c3ccccc3N=C(SCc3ccccc3F)N2C1=O)NCCc1ccccc1 (stereo unspecified) | -16% | -18%
57 | COc1cc(/C=C(\C#N)C(=O)c2c[nH]c3ccccc23)cc(OC)c1O | -6% | 29%
58 | Cc1noc(C)c1COc1cccc(C(=O)OCC(=O)NCCN2C(=O)CSC2=O)c1 | 5% | 0%
59 | CN1C(=O)N(C)C(=O)C(NS(=O)(=O)c2ccc(N)cc2)(c2ccccc2)C1=O | -11% | -4%
60 | Cc1ccc2c(c1)N(CC(=O)NCCc1ccccc1)C(=O)c1cccnc1O2 | -5% | -13%

Remaining list, next part.
Below each SMILES – VACV mCherry inh | Vaccinia Venus
(61) CC(C)C[C@H](NC(=O)c1nc[nH]c1C(=O)NCc1ccc(CNC(=O)OC(C)(C)C)cc1)C(=O)OCc1ccccc1
    i | -2%
(62) C[C@@H]1CCCCO[C@@H](CN(C)C(=O)c2ccncc2)[C@@H](C)CN([C@H](C)CO)C(=O)c2cc(N(C)C)ccc2O1
    i | -2%
(63) c1ccc2c3c(c(CN4CCCCC4)cc2c1)COC3
    -9% | 0%
(64) CC1CC/C(=N/Nc2ccccc2)C(=O)N1 (stereo unspecified)
    -11% | -6%
(65) CC(=O)c1c(C)[nH]c(C(=O)N2CCN(C(=O)c3ccco3)CC2)c1C
    -14% | -9%
(66) C=CCN(CC=C)C(=S)NC(=O)Cc1cccc2ccccc12
    -4% | -10%
(67) CCN(CC)C(=O)N1CCN(S(=O)(=O)c2ccc(C)c(C)c2)CC1
    · | -11%
(68) CCOC(=O)c1c(NC(=O)c2ccc(C)cc2)sc2c1CC(C)(C)OC2
    · | ?
(69) CCc1ccc(OCC(=O)N(Cc2ccco2)Cc2ccco2)cc1
    -6% | -12%
(70) CCOC(=O)C1(CCOC)CCN(Cc2cnc(-c3cccc(C)c3)nc2)CC1
    i | -5%
(71) O=C(O)c1ccc(CNC(=O)c2ccccc2NC(=O)c2ccc([N+](=O)[O-])cc2)cc1
    -6% | -6%
(72) CCOc1ccc(C2/C(=C(\O)c3ccc4c(c3)OCCO4)C(=O)C(=O)N2CCN2CCOCC2)cc1OC (stereo unspecified)
    -9% | -14%
(73) COc1ccc(NC(=O)/C(=C\c2cccnc2)NC(=O)c2cccs2)cc1
    -8% | 0%
(74) Cc1cccc(NC(=O)C2CCCN(S(=O)(=O)c3cccc4cccnc34)C2)c1 (stereo unspecified)
    -19% | -15%
(75) FC(F)(F)c1cc(-c2ccco2)nc(N2CCOCC2)n1
    · | -19%
(76) CCOC(=O)C1=C(COC(=O)/C=C/c2ccc(OC)cc2OC)NC(=O)NC1C (stereo unspecified)
    -16% | -1%
(77) O=C1CCN(Cc2nnnn2CC2CCCO2)c2ccccc2N1 (stereo unspecified)
    -18% | -19%
(78) CCn1cc(S(=O)(=O)c2ccccc2)c(=O)c2cc(F)c(N3CCN(c4ccccc4)CC3)cc21
    -4% | -10%
(79) c1cc2c3c(cccc3c1)-c1cnccc1-2
    0% | -6%
(80) O=C(NC(=S)Nc1nc(-c2ccccc2)cs1)c1cccs1
    -10% | -7%
(81) COCCNC(=S)N1C2CCC1CC(NC(=O)NC13CC4CC(CC(C4)C1)C3)C2 (stereo unspecified)
    -9% | -18%
(82) O=C(NNC(=O)c1cc(-c2ccc(Cl)cc2Cl)nc2ccccc12)Nc1ccccc1
    · | -46%
(83) Cc1c(Br)c([N+](=O)[O-])nn1CC(=O)Nc1ccc2nc3n(c(=O)c2c1)CCCC3
    -16%[7.34 µM] | ?
(84) O=C1OC(N2C(=O)CC[C@H]2C(=O)Nc2ccc(F)c(F)c2)c2ccccc21 (stereo partly specified)
    3% | 1%
(85) Nn1c(-c2ccco2)n[nH]c1=S
    -11% | 2%
(86) CNC(=O)Cc1csc2ccc(C)cc12
    -9% | -13%
(87) CCCN(CCC)S(=O)(=O)c1ccc(Cl)c(OC)c1
    0% | 6%
(88) Cc1ccnn1CC(=O)N/N=C/c1c[nH]c2ccccc12
    -13% | -2%
(89) CCCCn1c(CN2C(=O)c3ccccc3C2=O)nc2ccccc2c1=O
    · | -3%
(90) CCOc1ccc(S(=O)(=O)NCCC(=O)NCC2CCCO2)cc1 (stereo unspecified)
    -16% | -3%
(91) Cc1cccc(NC(=O)c2nc[nH]c2C(=O)Nc2cc(Br)ccc2F)c1
    -17% | ?
(92) COC(=O)c1ccc(C2c3[nH]c4ccccc4c3C[C@H]3C(=O)N(C)CC(=O)N23)cc1 (stereo partly specified)
    -3% | -9%
(93) CC1(C(=O)O)CCCN(C(=O)c2ccc(F)cc2Cl)C1 (stereo unspecified)
    i | -11%
(94) Cc1ccc(C)c(N(C(=O)Cc2cccs2)C(C(=O)NC2CCCC2)c2ccc(C)o2)c1 (stereo unspecified)
    -5% | -11%
(95) COC(=O)c1c(NC(=O)Cc2cccs2)sc2c1CCCC2
    i | -28%
(96) CCN1CCN(CCCNC(=O)c2cc3sccc3n2CC)CC1
    i | -9%
(97) CCOC(=O)Cc1nc(-c2ccccc2)n[nH]1
    -6% | -14%
(98) COc1c2c(c(OC)c3ccccc13)[C@]1(OC2)O[C@H](CCO)C[C@H](O)[C@H]1O
    -14% | -1%
(99) CC(=O)N1CC23C=CC(CC2CC12CCCCCC2)O3 (stereo unspecified)
    -18% | -9%
(100) NNC(=O)CN1C(c2ccccc2)=Nc2ccc(Br)cc2C1c1ccccc1 (stereo unspecified)
    -5% | -18%
(101) CNC(=O)CC1C(=O)N(c2ccc(Cl)cc2)C(=S)N1CCc1ccc(OC)c(OC)c1 (stereo unspecified)
    i | -16%
(102) Cc1ccc(OCc2nc(-c3ccc(C(=O)NCCc4ccc(Cl)cc4)cc3)oc2C)cc1
    0% | -4%
(103) Cc1cccc(N2C(=O)CSC23C(=O)N(Cc2cccc(C(F)(F)F)c2)c2ccccc23)c1 (stereo unspecified)
    -17% | -2%
(104) O=C(NCC1CCCO1)C1C2C=CC3(CN(Cc4cccs4)C(=O)C13)O2 (stereo unspecified)
    i | -3%
(105) Cc1cc(C)c(CSc2nnnn2-c2ccc(C(=O)O)cc2)c(C)c1
    -21% | -8%
(106) Cc1cc(=S)[nH]c2c(C)cccc12
    i | -9%
